High-throughput results (PubChem BioAssay)
Mtb bLac sens: beta-lactam sensitization of Mtb H37Rv. inhibition, % at 25 µM. M. tuberculosis H37Rv growth with meropenem, percent inhibition; hits of this screen are not shown here. 330,000 compounds, 0.27% hits;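 active means about 74% or more and at least 40 points above the plate without the antibiotic, then above 30% in a dose series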;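 further: growth measured after seven days incubation then overnight dye step; 0% = bacteria only wells and 100% = bacteria with antibiotic; twin plates without the antibiotic show which effects depend on it; some results filed as inactive read as strong as hits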
Arbovirus inh: antivirals against arbovirus infection | arbovirus infection cell-based antiviral screen | inhibition, % at 10 µM | 200,000 compounds, 0.37% hits | AID 1251;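 active means inhibition from about 30%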;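 further: bluetongue infection of BSR cells; cell survival read as ATP light after 72 h; 0% = infected wells without compound and 100% = uninfected wells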
YopH PTP inh: inhibitors of Yersinia enterocolitica YopH tyrosine phosphatase | AID 898 | 140,000 compounds, 0.16% hits | fluorescence Ex485/Em525 | inhibition, %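 (about 10 µM by stock and volumes)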;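 active means inhibition of 50% or more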;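 further: controls were vehicle for no effect and minimum signal wells for full effect; inactives centre near -20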
Mtb H37Rv: M. tuberculosis H37Rv growth inhibitors, H37Rv strain (AID 1626); M. tuberculosis H37Rv growth inhibition; higher % means a stronger effect; 220,000 compounds, 0.95% hits; inhibition, % at 10 µM; hits with a dose series show IC50 in µM;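 active means confirmed in a dose series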;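 further: bacteria incubated seven days before Alamar blue readout; 0% = bacteria only wells and 100% = bacteria with antibiotic wells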
RecA splice inh: Mtb RecA intein splicing inhibition | cell-free RecA intein splicing, fluorescence | 290,000 compounds, 0.75% hits | P9WHJ3 | AID 2221 | inhibition, %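 (about 9 µM by stock and volumes)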; in the data active means inhibition above about 30%;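 further: 0% = vehicle wells and 100% = reference inhibitor control wells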
Target sequence (P9WHJ3 whole entry, looked up, canonical isoform): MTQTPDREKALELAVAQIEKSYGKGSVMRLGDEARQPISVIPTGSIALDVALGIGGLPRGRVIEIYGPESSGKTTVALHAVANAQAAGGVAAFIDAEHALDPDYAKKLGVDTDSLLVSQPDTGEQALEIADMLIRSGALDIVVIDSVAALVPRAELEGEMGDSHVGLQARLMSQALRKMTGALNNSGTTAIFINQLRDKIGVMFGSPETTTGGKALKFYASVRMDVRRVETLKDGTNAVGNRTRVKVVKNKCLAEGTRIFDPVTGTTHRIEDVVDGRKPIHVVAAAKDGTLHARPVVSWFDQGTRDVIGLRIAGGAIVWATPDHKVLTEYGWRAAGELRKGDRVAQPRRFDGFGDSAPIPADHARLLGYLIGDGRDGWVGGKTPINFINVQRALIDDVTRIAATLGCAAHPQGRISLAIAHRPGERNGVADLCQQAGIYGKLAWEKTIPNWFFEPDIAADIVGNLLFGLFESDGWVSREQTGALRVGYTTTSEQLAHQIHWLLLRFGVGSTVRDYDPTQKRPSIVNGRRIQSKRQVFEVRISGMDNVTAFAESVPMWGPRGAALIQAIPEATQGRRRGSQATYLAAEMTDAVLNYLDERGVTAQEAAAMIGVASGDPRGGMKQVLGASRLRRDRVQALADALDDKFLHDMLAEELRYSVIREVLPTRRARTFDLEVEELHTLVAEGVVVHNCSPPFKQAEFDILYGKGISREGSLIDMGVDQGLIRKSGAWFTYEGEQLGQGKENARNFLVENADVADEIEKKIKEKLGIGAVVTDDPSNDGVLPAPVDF
Arbovirus inh repeat: further read-out of Arbovirus inh, marked with its call; inhibition, %; measured here: 10K subset replicate screen; many hits read low in the repeat;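 first of two repeat runs on a subset; 0% = infected and 100% = uninfected wells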
* marks the source's active call; other numbers are inactive results; . = no result given.

SMILES	Mtb bLac sens	Arbovirus inh	YopH PTP inh	Mtb H37Rv	RecA splice inh	others
COc1ccccc1NC(=S)NCC1CCC(CNC(=S)Nc2ccccc2OC)CC1 (centres undefined)	-4.0	.	.	-5.1%	0.4
CC(=Nc1cccc(C)c1)c1sc2ccccc2c1O	43.4	-1.4	17.6	3.0%	-6.0
Cc1ccc2nc(SCC(=O)Nc3cc(C(C)(C)C)nn3-c3ccccc3)[nH]c2c1	16.4	-11.3	-41.8	12.7%	7.3
O=C(O)c1ccn(Cn2cnc3ccccc32)n1	4.2	11.6	-25.5	-7.2%	-1.1
CC(=O)OC(C(=O)NC1CCCCC1)c1cccc(C)c1 (centres undefined)	6.8	2.1	-23.3	-9.3%	-3.4
C=CCNC(=S)N/N=C(\C)c1cccc(NC(C)=O)c1	-2.8	-5.0	.	-5.0%	-1.7
CCSc1nnc(NC(=O)Nc2cccc(C)c2)s1	-12.2	.	.	-2.8%	2.6
CC(C)(C)n1ncc2c(=O)n(CC(=O)Nc3ccc(Cl)cc3)cnc21	1.6	8.0	-41.7	16.8%	0.7
O=C(O)c1ccc2c(c1)N(Cc1ccccc1)C(=O)c1ccccc1S2	-4.0	.	.	-1.2%	0.2
O=C(NCc1cccc(Cl)c1)c1ccc2c(c1)SC1=NS(=O)(=O)CCN12	2.3	-8.4	.	-7.9%	2.8
O=c1oc2ccccc2n1Cc1ccccc1	-4.1	-10.6	.	-1.7%	0.4
CCC(=O)Nc1sc2c(c1C(=O)OC)CCN(Cc1ccccc1)C2	-8.0	.	.	.	-2.1
CCN(CC)c1nc2c(c(=O)[nH]c(=O)n2C)n1Cc1ccccc1Cl	-0.3	.	.	.	-1.4
Cc1cc(C(F)(F)F)nc(NCc2cccnc2)n1	2.2	0.9	-4.5	-10.8%	0.2
COc1ccc(CC(=O)NCCS(=O)(=O)N2CCN(c3ccccc3)CC2)cc1OC	-13.0	.	.	.	0.7
COc1ccc(C(=O)NCC2OCCc3ccccc32)cc1 (centres undefined)	-8.1	1.6	-76.8	-3.5%	-1.4
OCc1ccccc1NC(=S)Nc1cccnc1	-6.9	-1.2	-6.4	-0.9%	2.0
Cc1ccc(C)c(NC(=O)c2nc(Cl)ccc2Cl)c1	-3.3	-3.3	.	-0.5%	0.0
CCOC(=O)C(=CNNc1cccc(Cl)c1)C(=O)OCC	10.4	.	.	10.6%	2.2
COC(=O)C1=C(C(=O)OC)C(c2cc([N+](=O)[O-])ccc2O)c2sc(=O)[nH]c2S1 (centres undefined)	-5.0	-2.8	.	7.0%	-7.2
COCc1c(C(=O)N2CCc3ccccc32)oc2ccccc12	3.6	.	.	.	9.4
O=C(CN1CCN(C(=O)C2COc3ccccc3O2)CC1)Nc1ccccc1 (centres undefined)	-2.1	.	.	-4.7%	0.5
COCCN(CC(=O)NCC1CCCO1)C(=O)CCC(=O)Nc1cc(C)on1 (centres undefined)	-7.6	8.1	-20.2	-7.2%	1.6
NS(=O)(=O)c1ccc(CCNS(=O)(=O)c2cccs2)cc1	-6.0	.	.	.	-1.8
O=C(NCc1cc([N+](=O)[O-])ccc1O)c1cccnc1Sc1ccccc1Cl	1.0	.	.	.	0.2
Cc1ccc(NC(=O)C(C)OC(=O)Cc2c[nH]c3ccccc23)cc1 (centres undefined)	-9.6	.	.	.	0.7
Cc1nc(-c2cccnc2)sc1C(=O)Nc1ccc(Cl)cc1	89.6	7.0	-37.2	4.7%	2.1
CCOC(=O)C(C)c1c(C(=O)c2ccc(C)nc2)c2ccccc2n1C (centres undefined)	-2.7	.	.	-6.2%	0.2
CCCN1C(=O)C(O)(C/C(C)=N/O)c2ccccc21 (centres undefined)	-7.5	-1.6	-44.7	-5.2%	-1.1
O=C(CNS(=O)(=O)c1c(Cl)cccc1Cl)N1CCCCCC1	2.4	.	.	.	3.3

Next section, overlapping the part above by two compounds.
SMILES	Mtb bLac sens	Arbovirus inh	YopH PTP inh	Mtb H37Rv	RecA splice inh	others
CCCN1C(=O)C(O)(C/C(C)=N/O)c2ccccc21 (centres undefined)	-7.5	-1.6	-44.7	-5.2%	-1.1
O=C(CNS(=O)(=O)c1c(Cl)cccc1Cl)N1CCCCCC1	2.4	.	.	.	3.3
Cc1ccc(NC(=O)Nc2cccs2)cc1	-1.3	4.7	-33.3	0.6%	1.6
COc1ccc(OC)c(S(=O)(=O)Nc2ccc(O)c(Sc3ncn[nH]3)c2)c1	-13.0	11.0	-17.7	-14.6%	-7.3
CN(CC(=O)NCCc1ccc(S(N)(=O)=O)cc1)S(=O)(=O)c1cccc2nsnc12	-5.3	.	.	.	-1.7
CCCNC(=O)NC(=O)CSc1cccc(C(F)(F)F)c1	4.1	16.6	.	4.6%	-3.2
C=C1C[C@H]2[C@@H]3CCc4cc(OC)ccc4[C@H]3CC[C@]12C	48.0	.	.	.	4.5
Cc1ccc(S(=O)(=O)c2c(C)nn(C(C)(C)C)c2OC(=O)c2ccc(Br)o2)cc1	-1.9	-43.4	-46.4	6.6%	11.0
Cc1cc(C)n(-c2ccc(NC(=O)C3CCN(Cc4cnc(C)s4)CC3)cc2)n1	-5.3	.	.	.	-0.5
CN(C)CCNC(=O)c1cccn(Cc2cc(C(F)(F)F)cc(C(F)(F)F)c2)c1=O	-1.6	-18.1	.	5.5%	-0.6
CCC(C(=O)NCc1ccco1)N(Cc1cccs1)C(=O)CNS(=O)(=O)c1ccccc1 (centres undefined)	-7.0	5.5	-6.5	3.7%	0.2
COc1ccc(OC)c(N2C(=O)NC(=O)C(CCc3ccncc3)(CCc3ccncc3)C2=O)c1	-0.8	10.4	39.3	-7.1%	0.8	Arbovirus inh repeat=3.7
CCOC(=O)c1cnc(SCC(=O)NCc2cccs2)nc1N	3.5	-1.9	-29.6	-1.1%	-0.3
O=C(CC(CC(=O)c1ccccc1)c1ccccc1)c1ccccc1	5.7	.	.	.	11.9
O=C(c1ccccc1)N1CCCC(C(=O)N2CCCCCC2)C1 (centres undefined)	-6.4	-2.6	-12.5	-3.7%	2.5
Cc1ccc(SCc2[nH]nc3c2C2(CCSCC2)C(C#N)=C(N)O3)cc1	-0.7	-3.9	1.0	0.5%	60.1*
CCN(CC)S(=O)(=O)c1cccc(NC(=O)CSc2nnc(N)s2)c1	-3.6	1.1	.	-4.0%	-1.0
CCOC(=O)c1c(C)[nH]c(C)c1S(=O)(=O)NCc1ccc(OCC)cc1	1.9	.	.	.	2.9
O=C(CCC(=O)N1CCSc2ccccc21)NCc1ccc(Cl)cc1	-6.8	.	.	.	2.5
Cc1noc(C)c1S(=O)(=O)N1CCCCC1	-1.5	-0.7	-8.7	-4.4%	1.5
CCCCC(CCC(=O)O)(C(=O)OCC)c1csc(Nc2ccccc2)n1 (centres undefined)	9.2	1.3	.	4.8%	0.0
Clc1ccc2[nH]c3c(NCC4CCCO4)ncnc3c2c1 (centres undefined)	1.1	-0.9	-15.8	0.1%	-1.0
COc1ccc(/C=C/C(=O)Nc2c(C(=O)O)[nH]c3ccccc23)cc1OC	3.3	.	.	2.5%	1.7
CC1CCCCC1NC(=O)CNC(=O)c1ccco1 (centres undefined)	-9.3	.	.	.	-2.1
Cc1[nH]c2ccccc2c1N=Nc1ccccc1C(=O)O	0.2	-3.7	-13.5	-0.1%	1.0
COc1ccc(/C=N/n2cncn2)cc1Cn1nc(C)c([N+](=O)[O-])c1C	-2.4	.	.	3.4%	5.3
Cc1oc(-c2ccccc2Cl)nc1CN1CCCN(C(=O)c2ccco2)CC1	5.4	3.7	.	2.2%	-1.4
CN(CC(=O)Nc1cccc(F)c1)C(=O)c1ccc(-n2cncn2)c([N+](=O)[O-])c1	-2.9	.	.	.	-7.5
CCC1CCc2c(sc(NC(=O)c3cnccn3)c2C(N)=O)C1 (centres undefined)	5.2	.	.	.	-4.3
O=C(NCCN1CCCC1)c1ccc(Cn2c(=S)[nH]c3ccc(Br)cc3c2=O)cc1	91.1	-13.6	.	6.7%	0.9
CN(C)CCCN(C(=O)c1ccco1)c1nc2ccc(Cl)cc2s1	-3.5	-22.2	.	-5.2%	-3.5
COc1cc(NC(=O)C/C(C)=N/NC(=O)c2cccc(O)c2)c(OC)cc1Cl	6.5	-7.6	2.8	16.7%	12.1
COc1ccc(-c2nn(-c3ccccc3)cc2C(=O)Nc2ccc(C(=O)O)cc2)cc1OC	5.6	.	.	.	1.3
Cn1c(=O)c2c(nc3n2CC(O)CN3c2ccccc2)n(C)c1=O (centres undefined)	2.1	.	.	.	1.1
CCOC(=O)c1c(CN2CCN(CC#N)CC2)n(C)c2cc(Br)c(OC)cc12	-4.0	.	.	.	1.9
O=C(CN1C(=O)NC2(CCCC2)C1=O)OCc1ccc(Br)cc1	-5.1	.	.	.	3.0
CNC(=O)Cc1nc2ccccc2n1CC(=O)Nc1cc(C)cc(C)c1	-6.3	5.8	.	5.2%	1.4
COc1cccc(-c2nn(C)c3sc(C(=O)N4CCN(c5ccccc5)CC4)cc23)c1	47.7	5.9	-12.5	21.6%	5.0
CCOC(=O)c1ccc(NC(=O)CCn2nnc3ccccc32)cc1	66.1	1.1	-74.3	75.1%	-2.7
CC(=O)Nc1ccc(NC2=CC(=O)CC(C)(C)C2)cc1	-12.6	11.7	32.8	-0.8%	-2.0
CCSc1cc(C)nc2c(-c3ccccc3)cnn12	-0.4	.	.	-2.8%	-0.5
Cc1ccnc(NC(=O)CCNC(=O)c2ccc(Cl)cc2)c1	-7.5	.	.	.	-1.3
COc1cc(CNc2nnnn2C)ccc1OCc1c(F)cccc1Cl	-3.7	1.8	.	-2.2%	-2.0
COc1cc(/C=N/NC(=O)CCc2ccccc2)ccc1O	-0.6	8.2	-15.1	.	-2.3
O=C(CCN1C(=O)c2ccccc2C1=O)Nc1ccc(S(=O)(=O)N2CCOCC2)cc1	-7.1	0.1	-7.0	-4.0%	3.2
O=C(Nc1ccccc1-c1ccccc1)c1ccccc1[N+](=O)[O-]	-0.2	.	.	.	3.0
COCCCn1c(=S)[nH]c(C)c(C)c1=O	1.6	.	.	9.9%	0.6

Compounds listed so far containing fluorine (5):
SMILES	Mtb bLac sens	Arbovirus inh	YopH PTP inh	Mtb H37Rv	RecA splice inh	others
Cc1cc(C(F)(F)F)nc(NCc2cccnc2)n1	2.2	0.9	-4.5	-10.8%	0.2
CCCNC(=O)NC(=O)CSc1cccc(C(F)(F)F)c1	4.1	16.6	.	4.6%	-3.2
CN(C)CCNC(=O)c1cccn(Cc2cc(C(F)(F)F)cc(C(F)(F)F)c2)c1=O	-1.6	-18.1	.	5.5%	-0.6
CN(CC(=O)Nc1cccc(F)c1)C(=O)c1ccc(-n2cncn2)c([N+](=O)[O-])c1	-2.9	.	.	.	-7.5
COc1cc(CNc2nnnn2C)ccc1OCc1c(F)cccc1Cl	-3.7	1.8	.	-2.2%	-2.0

(next part)
SMILES	Mtb bLac sens	Arbovirus inh	YopH PTP inh	Mtb H37Rv	RecA splice inh	others
O=C1CCCC/C1=C/NCc1ccc(F)cc1	1.5	-3.4	.	-0.3%	0.5
O=C(c1ccco1)N1CCN(S(=O)(=O)c2cccc3nsnc23)CC1	-0.4	3.9	-27.6	1.8%	-6.2	Arbovirus inh repeat=-0.1
Oc1c(Cl)cc(Cl)cc1/C=N/c1nc(-c2ccc(Cl)cc2)cs1	56.8	.	.	26.2%	5.2
CCN(CC(=O)NC(C)(C)C)Cc1cc(=O)n2c(-c3ccccc3)csc2n1	1.0	.	.	.	0.9
Cc1ccccc1/C=C/c1cccc[n+]1C	-6.0	.	.	.	-1.0
CC12CN(S(=O)(=O)c3ccccc3)CC(C)(CN(S(=O)(=O)c3ccccc3)C1)C2	-0.8	2.9	-3.5	-0.3%	2.9
Cc1ccc2c(=O)cc(C(F)F)oc2c1	4.5	0.1	-24.1	-0.8%	-1.9
CC(=O)N1CCN(S(=O)(=O)c2cccc(C(=O)Nc3nccs3)c2)CC1	-2.7	-2.8	.	5.5%	2.7
O=C(O)CCn1cc(C=C2C(=O)NC(=O)NC2=O)c(-c2ccc(Br)cc2)n1	7.0	4.9	-12.2	-3.1%	-2.3
Cc1c(Cl)cccc1NC(=O)CCC(=O)NNC(=O)c1ccccc1Cl	0.9	3.7	-19.5	-4.3%	-1.0
Cc1ccnc(NS(=O)(=O)c2ccc(N=Cc3c(O)n(C)c(=O)n(C)c3=O)cc2)n1	10.8	-2.3	.	-7.0%	6.0
O=S(=O)(NCC1CCCO1)c1cccc2nsnc12 (centres undefined)	6.7	2.6	-24.7	-4.9%	1.0
Cc1cccc(N2C(=O)C3C4C=CC(CC4)C3C2=O)c1 (centres undefined)	-1.7	.	.	.	-1.5
O=C(NCc1ccco1)c1cc2c(s1)CSC2	-9.1	11.2	-8.9	-8.2%	0.3
CCCC(C(=O)NCC1CCCO1)N(Cc1ccco1)C(=O)CNS(=O)(=O)c1ccccc1 (centres undefined)	-7.2	-2.6	-3.5	-2.0%	3.1
Cc1ccccc1C1c2[nH]c3ccccc3c2C[C@H]2C(=O)N(C3CCN(Cc4ccccc4)CC3)CC(=O)N12 (some centres undefined)	85.1	.	.	.	4.1

These rows are one share of the data; count on the stated rates, not on these rows.
